High-throughput results from PubChem.
AID504770: E. coli YBA685 growth inhibition, screen for V. cholerae RctB inhibitors; E. coli YBA685 rctB-dependent plasmid, OD600 growth, 3 h; active compounds read low; hit rate 0.27% among 130,000; z-score (concentration not given with the values);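 active = z-score under -2 on both plates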;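 also: wells of about 30 µL received 100 nL stock; score is relative to mean and SD of the test wells; the first replicate is given; strong numbers were not always called active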
Ba CapD inh: CapD enzyme inhibition; purified CapD enzyme, fluorescence intensity read-out; active compounds read low; some hits fall short of the stated cut; hit rate 0.23% among 140,000; z-score (concentration not given with the values); AID 492967;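 active = z-score under -4 in either of two replicates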;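 also: stock transfer was 100 nL into about 40 µL; score is relative to mean and spread of the plate; one replicate is shown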
Starred values were filed as active, the others as inactive; i = inactive; . = no result given; & = joins results of further samples.

SMILES	AID504770	Ba CapD inh
O=C(NC1CCc2ccccc21)c1cn(-c2ccc(F)cc2)nn1 (stereo not drawn)	0.7	0.24
c1csc(-c2nc3nonc3c3nc4ccccc4n23)c1	-0.2	.
COc1ccc(/C=N/O)cc1OC1CCCC1	-1.1	-0.13
COC(=O)c1cccc(NC(=O)COc2ccccc2)c1	-1.8	-1.9
Cc1cc2c(c(C)c1Cl)CN(Cc1ccc3c(c1)OCO3)CO2	1.7	-0.795
Cc1ccc(C(=O)CN2C3=NCCN3c3ccccc32)cc1	.	0.35
CN1CCC(NC(=O)c2ccncc2)CC1	0	-0.445
CC(C)C(C(=O)NN1C(=O)/C(=C/c2ccccn2)N=C1c1ccccc1)c1ccc(Cl)cc1 (stereo not drawn)	-0.05	6.69
O=C(O)CC12CSc3[nH]c(=O)sc3C1c1ccccc1OC2=O (stereo not drawn)	0.25	14.9
O=C(Nc1cccnc1)c1ccc(-c2cc(Cl)ccc2Cl)o1	-0.65	-0.685
CC1=CCC(C(C)COC(=O)NC(Cc2c[nH]c3ccccc23)C(=O)OCc2ccccc2)CC1 (stereo not drawn)	.	-0.61
COC(=O)c1c(C)cc(C)c2c1CC(C)(C)C2=O	.	-0.58
O=C(O)c1c[nH]c2ccc(S(=O)(=O)N3CCCC3)cc2c1=O	0.3	-0.35
COC(=O)Nc1ccc(S(=O)(=O)N2CCCc3cccc(O)c32)cc1	0.5	0
COC(=O)c1ccc(-c2nc(O)c3c4ccccc4c(=O)[nH]n23)cc1	-0.7	.
COc1nc(C)nc(C)c1Oc1ccc(Cl)cc1Cl	0	-0.12
O=C(O)/C=C\C(=O)c1ccc(O)cc1	-0.45	-0.82
COCC(C)NC(=O)c1ccco1 (stereo not drawn)	0.45	-0.15
O=C(NC1CCCC1)c1c(O)c2cccc3c2n(c1=O)CC3	-0.2	12.7
O=C(O)CCn1c(C(=O)O)cc2sccc21	-0.3	.
CCCc1[nH]n(-c2ccc(F)cc2)c(=O)c1C=NCCSc1ccc(Cl)cc1	.	-0.17
O=C(O)COCc1cc2cccc3c2n(c1=O)CCC3	.	10.2
CCc1cc2c3c([nH]c2cc1S(=O)(=O)N1CCCCC1)CCCC3=O	0.55	0.2
CC1(C)CC(=O)C=C(NCC2CCCO2)C1 (stereo not drawn)	-1.45	-0.365
CCn1c2ccccc2c2cc(NC(=O)CCC3CCCCC3)ccc21	0.4	-0.685
CCc1ccc(C(=O)COC(=O)c2nc(-c3ccccc3)oc2C)cc1	-0.6	.
CCn1c(-c2ccccc2)c[nH]c1=S	-0.1	.
O=C1/C(=C/c2ccccc2)CCC/C1=C\c1ccccc1	.	-0.64
C(=N\c1cc(-c2ccccc2)nn1-c1ccccc1)/c1ccccc1	-0.3	-1.43
O=C(OCC(=O)c1c[nH]c2ccccc12)c1ccc(-n2cnnn2)cc1	0.15	.
O=C(Nc1cccc(-c2nc3ccccc3[nH]2)c1)C1CC(=O)N(Cc2ccco2)C1 (stereo not drawn)	-1.95	.
CN(Cc1c(O)ccc2c(=O)c(-c3ccccc3)coc12)C1CCCCC1	-0.45	3.05
O=C(O)CCCN1CCS(=O)CC1	1.3	i
O=C(NCCCN1CCOCC1)c1cc2c(s1)CCC2	1.5	-0.475
CCCCCC(=O)c1cc(C)c(C)cc1NC(C)=O	.	0.04
CCn1c2ccccc2c2cc(CN3CCC(NC(=O)OCc4ccc(C)cc4C)C3)ccc21 (stereo not drawn)	.	13.1
Cc1cc2cccc(C)c2nc1SCC(=O)O	-1.05	.
CCOC(=O)c1c(NC(=O)c2sc3nc(N)c(C#N)cc3c2N)sc2c1CCC2	.	0.42
O=C(CSc1nnc2c(n1)[nH]c1ccccc12)NCC1CCCO1 (stereo not drawn)	.	-0.32
c1cc2nncn2nc1NCCN1CCOCC1	-0.65	-0.08
CC1Cc2ccccc2N1C(=O)C1CCCCN1S(=O)(=O)c1ccc(Cl)cc1 (stereo not drawn)	-0.1	-0.19
Cc1cc(O)cc(=O)n1Cc1cccnc1	-1.15	17.5
COc1cccc(-c2nc3sc4c(c3c(=O)n2CC(=O)Nc2ccc(C)cc2C)CCCC4)c1	.	0.205
CCCC1=Nc2cc(C(=O)NC3CCCC3)ccc2Sc2ccccc21	-0.1	61.6
CC(C)(C)C(=O)Nc1cc(NC(=O)C(C)(C)C)cc(C(=O)Nc2ccc(Oc3ccccc3)cc2)c1	-0.5	0.37
CC1(C)NC(=S)N(c2ccccc2)N1	2.7&1.05	-1.71&-0.51
Cc1cc(C)c(C#N)c(Oc2cccc(NC(=O)CC(C)C)c2)n1	.	-0.215
CC(=O)NC1=CC(=O)c2nonc2C1=O	-9.25*	3.23
CCOC(=O)c1ccc(OCC#Cc2ccc(C(F)(F)F)cn2)cc1	-1.05	-0.305
CC(C)(C)C(=O)NC(=S)NC1CCSC1=O (stereo not drawn)	0.95	0.075
Cc1ccc(NC(=O)N2CCCn3c(SCc4ccc(F)cc4)nnc32)cc1	-0.7	-0.89
Cc1ccc(/C=C2\CCCC(CN(C)C)C2=O)cc1 (stereo not drawn)	-1.05	-2.29
O=C(Nc1cccc([N+](=O)[O-])c1)C(Cc1ccccc1)N1C(=O)C2C3c4ccccc4C(c4ccccc43)C2C1=O (stereo not drawn)	.	0.08
N#Cc1ccc(-c2ccc(Cl)c(Cl)c2)nc1Sc1ccc(F)cc1	.	0.095
COc1cccc(C(=O)c2sc(NC(C)C)nc2N)c1	-0.5	-4.25*
O=C1/C(=C\Nc2ccc(F)cc2)CCN1c1ccc(Cl)cc1	0.3	1.16
N#Cc1cc2cc3c(cc2nc1SCC(=O)NC1CCCCC1)OCCO3	-2.25	.
CNS(=O)(=O)c1cccc(S(=O)(=O)c2cccc(S(=O)(=O)NC)c2)c1	-0.45	.
CCCc1[nH]n(-c2ccc(F)cc2)c(=O)c1C=NCCc1ccc(OC)cc1	.	-0.405
OC(COc1ccc2oc3c(c2c1)CCCC3)CN1CCN(c2ccccc2)CC1 (stereo not drawn)	.	-0.4
Further records.
SMILES	AID504770	Ba CapD inh
COC(=O)c1ccc(/C=C2/NC(=O)NC2=O)cc1	1.2	-0.28
CC(C)(C)C(=O)Nc1nnc(/N=C/c2ccc(Br)s2)s1	-0.9	-1.92
Cc1cnc(C(=O)Nc2ccc(S(=O)(=O)NC3=NCCCCC3)cc2)cn1	-1.45	.
COc1ccccc1N/C(SCc1ccccc1)=C(/C(Cl)=C(Cl)Cl)[N+](=O)[O-]	.	-1.11
Cc1ccc(/C(O)=C2\C(=O)C(=O)N(c3nncs3)C2c2ccc(C)cc2)cc1 (stereo not drawn)	.	-0.495
CCOC(=O)Cc1csc(NC(=O)/C=C/c2cccs2)n1	-0.2	.
C/C(=N\N1C(=O)c2ccccc2C1=O)c1ccccc1O	0.75	0.535
CCOC(=O)c1cncn1C(C)c1ccccc1 (stereo not drawn)	-0.05	0.11&1.25
C(=N\c1nncs1)/Nc1nncs1	0.35	.
Cc1ccc(N(C(=O)C2CCCO2)C2C=CS(=O)(=O)C2)cc1Cl (stereo not drawn)	-1.1	-0.14
O=C(c1cc(=O)[nH]c2ccccc12)N1CCCc2ccccc21	-0.5	.
Cc1ccn2cc(CSC(=S)N3CCOCC3)nc2c1	-0.65	.
O=C(O)c1cc2c3c(c1)C1C=CCC1C(c1cccc([N+](=O)[O-])c1)N3CC1CC=CC21 (stereo not drawn)	.	-0.16
CCCN1CC23C=CC(O2)C(C(=O)O)C3C1=O (stereo not drawn)	0.8	0.335
Cc1ccc(C2CC(=O)CC(c3ccccc3)S2)cc1 (stereo not drawn)	-0.25	0.155
CCCCN1C(=O)S/C(=C\c2cc(C)n(C)c2C)C1=O	-0.55	8.73
COc1ccc(-c2cc(C(=O)NCCCn3ccnc3)no2)cc1	-0.5	-0.42
COc1ccc(S(=O)(=O)Nc2ccc(S(=O)(=O)N(C3CC3)C3CCN(Cc4ccccc4)CC3)cc2)cc1	.	-0.55
C=CCN(CC=C)C(=O)c1ccc2c(c1)OCO2	1	0.54
OCCNCCOc1ccc(I)cc1	0.75	.
COC(=O)c1ccc(CSc2nc3cc(S(C)(=O)=O)ccc3n2C(C)C)cc1	.	-0.23
CCCc1cc(=O)[nH]c(SCc2ccc(C#N)cc2)n1	-0.9	.
COC(=O)C1=C(Nc2ccccc2NC(=O)CCCC(=O)O)CSC1	0.75	-0.315
C=C1OC(C)(C)c2ccccc21	-0.65	.
O=C(C1CCN(S(=O)(=O)c2ccccc2)CC1)N1CCCCC1	-0.2	.
O=C(CCn1c(=O)sc2ccccc21)NCc1cccs1	-0.5	-0.055
COC(=O)c1sc(-c2ccc(C(C)(C)C)cc2)cc1NC(=O)COCC(=O)O	-0.05	62.7
N#CCCN(Cc1ccccc1)S(=O)(=O)c1ccc2c(c1)CCO2	-0.35	-0.155
CCOc1cc(C2C3=C(CC(C)(C)CC3=O)OC3=C2C(=O)CC(C)(C)C3)ccc1OCc1ccc(F)cc1	.	0.315
CC(=O)N1CCC(N(C(=O)CCC(=O)N2CCN(C(c3ccccc3)c3ccccc3)CC2)C2CC2)CC1	.	-0.78
CCCOC(=O)Nc1nc(-c2ccc(C)cc2)c(C)s1	.	-0.435
COc1ccc(NC(=O)c2ccc(Cn3cc(Cl)cn3)cc2)cc1	1.1	-0.02
CN1CCN(C(=O)/C=C/c2ccccc2)CC1	-0.25	.
O=C(Nc1c(S(=O)(=O)c2ccccc2)c2nc3ccccc3nc2n1C1CCCCC1)c1ccco1	0.55	.
COc1ccc(C2CC(=O)C(C=NCC(C)C)=C(O)C2)cc1 (stereo not drawn)	0.25	.
O=C(COc1cccc2ccccc12)Nc1ccc(CN2CCOCC2)cc1	-0.5	-0.7
CN1CCN(CC(=O)N2CCCC2=O)CC1	1.5	.
Cc1cc(C)nc(NS(=O)(=O)c2ccc(NC(=O)CSc3nnc4c5ccccc5n(C)c4n3)cc2)n1	.	-0.715
COc1ccc(CCNC(=O)CN2CCCc3ccccc32)cc1OC	-1.45	.
CC(=O)n1c(/C=C2\C=c3ccccc3=NC2=O)c(O)[nH]c1=S	1.1	-0.615
O=C(O)CCn1cc(/C=N\NC(=O)c2ccncc2)c(-c2ccccc2)n1	-1	.
Cn1c(=O)c(I)c(O)c2ccccc21	.	0.795
O=C(c1ccco1)N(Cc1cc2cccc3c2n(c1=O)CCC3)c1cccc(C(F)(F)F)c1	.	2.44
CSc1nc(NC(C)C)nc(N(C)C(N)=O)n1	1.05	.
CC1CN(C(=O)Cc2ccc(-c3ccccc3)cc2)CC(C)O1 (stereo not drawn)	-0.55	0.35
O=C(O)c1cncn1-c1ccc(F)cc1	-0.05	.
Cc1ccc(-c2csc(N)n2)cc1	-1.1	-0.425
Cc1cc(C)nc(NS(=O)(=O)c2ccc(NC(=O)CSc3cccc4cccnc34)cc2)n1	.	31.1
CCOCCOC(=O)C1=C(C)NC2=C(C(=O)CC(c3ccccc3)C2)C1c1cc2c(cc1Br)OCO2 (stereo not drawn)	.	14.5
COC(=O)C1CCN(S(=O)(=O)c2ccccc2)CC1	-0.5	0.325
N#Cc1ccccc1OCc1cc(-c2ccccc2)on1	-1.65	.
CCCN(CCC)C(=O)CSc1nc2ccsc2c(=O)n1Cc1ccccc1Cl	0.4	-0.9
CCn1c(Cc2ccccc2)nnc1SCC(=O)NC(=O)NCc1ccccc1	0.5	.
c1ccc2c(CCNC3=NCCC3)c[nH]c2c1	0.5	.
Cn1nccc1NC(=O)C1CCCCC1	.	0.06
Nc1nc(-c2ccc3c(c2)Cc2ccccc2-3)cs1	.	21.1
Cc1ccc2c(cnn2C(=O)CCC(=O)O)c1	-0.3	-0.01
COC(=O)c1ccc2nc(-c3ccccc3)c(-c3ccccc3)nc2c1	.	0.64
CCn1c(SC)nnc1C1CCCN1CC(=O)NCc1cccs1 (stereo not drawn)	0	.
O=C(c1cccc(F)c1)N1CCN(C(=O)c2cnn3cc(Br)cnc23)CC1	0.2	0.475
Later entries
SMILES	AID504770	Ba CapD inh
CCOC(=O)C1=C(C)N=c2s/c(=C\c3ccc(OC)c(O)c3)c(=O)n2C1c1ccc(SC)cc1 (stereo not drawn)	.	0.065
COc1ccc(OC)c(C2NC(=O)NC(C)=C2C(=O)Nc2cccc(Cl)c2)c1 (stereo not drawn)	.	-0.445
CN1C=CC=C/C1=C1\N=C(c2ccccc2)OC1=O	0.25	72.9
COc1cc2nc(N3CCN(C(=O)c4ccco4)CC3)nc(N)c2cc1OC	0.25	0.25&-0.52
